Rango dissoc inh: inhibition of RanGTP-driven Rango-importin beta dissociation | O95149+P62826 | AID 540253 | Biochemical FRET Rango-importin beta, RanGTP-induced dissociation | Potency, µM (top dose mostly 46.1 µM), for inactives: at the highest dose activity change, negative = inhibition | hit rate 0.071% among 340,000; active means falling FRET ratio curve, often poorly fitted, with flat reads before Ran was added; inconclusive means other falling curves, or compound fluorescence or quenching; inactive means flat or rising ratio curve;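 also: potency is read from the fitted curve at half-maximal effect; % of control where 0% means no effect; nearly all actives have a fitted effect of over 45% in size; -100% = wells without RanGTP and RCC1; the record marks most hits as doubtful in a second field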
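Compounds preincubate 5 min with complex of recombinant Rango and importin beta in PBS with 1 mM DTT. Ran (0.6 uM) loaded with 2 mM GTP plus 0.2 uM RCC1 starts dissociation; FRET is recorded 45 min later.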
GLA inh pH 4.5: alpha-galactosidase A (human) inhibition, pH 4.5; AID 1467; activity change, negative = inhibition, % at 105 µM; 230,000 tested, under 10 active; purified enzyme, 4-MU-alpha-Gal fluorescence, pH 4.5; P06280; inconclusive = small, poorly fitted or top-dose-only inhibition, or a rising curve; inactive = flat fitted curve, though single readings scatter; no compound was filed as active;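 also: 0% = full activity with enzyme and -100% = basal without enzyme; dose as in the result columns while the protocol names 77 µM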
Target sequence (P06280 whole entry, looked up): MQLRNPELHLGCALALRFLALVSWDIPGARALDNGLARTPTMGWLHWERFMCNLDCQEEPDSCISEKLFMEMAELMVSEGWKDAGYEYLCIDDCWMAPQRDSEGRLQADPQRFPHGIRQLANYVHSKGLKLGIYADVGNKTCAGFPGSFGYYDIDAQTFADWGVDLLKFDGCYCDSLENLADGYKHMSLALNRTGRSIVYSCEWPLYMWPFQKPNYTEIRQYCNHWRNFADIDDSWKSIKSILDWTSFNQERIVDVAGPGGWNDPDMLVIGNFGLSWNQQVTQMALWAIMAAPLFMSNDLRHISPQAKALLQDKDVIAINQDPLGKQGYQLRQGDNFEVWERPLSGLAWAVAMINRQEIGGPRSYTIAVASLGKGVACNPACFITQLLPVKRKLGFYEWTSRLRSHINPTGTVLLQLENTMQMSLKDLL
Rango-impB inh: Rango-importin beta binding inhibition | Rango CFP/YFP FRET sensor + importin beta, 45 min | Potency, µM (series often up to 92.2 µM), inactives show at the highest dose inhibition of complex formation | hit rate 0.031% among 340,000 | AID 540263; active = rising FRET ratio curve, often small or poorly fitted; inconclusive = mostly compound fluorescence or quenching in the first reads; inactive = flat curves in all reads;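 also: potency is read from the fitted curve at half-maximal effect; 0% = DMSO wells and 100% = buffer wells lacking importin beta; nearly all actives have a fitted effect of over 15% in size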
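FRET biosensor Rango (snurportin 1 IBB between N-terminal EYFP and C-terminal Cerulean), 50 nM in PBS/1 mM DTT/0.02% Tween-20/0.1% BSA, preincubated 5 min RT with compound; 0.125 microM importin beta added, 45 min RT, CFP/YFP FRET ratio read.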
miR-21 FLuc: miR-21 reporter, rising signal; 340,000 tested, under 10 active; Potency, µM (highest dose often 38.3 µM), for inactives: at the top dose reporter change, positive = more light; HeLa miR-21 FLuc reporter, luciferase, 48 h; active = well fitted rising curve with a large enough effect; inconclusive = small, poorly fitted or top-dose-only effect; inactive = no such curve, though single readings can be large or run the other way;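 also: % of control where 0% means no effect; miR-21 action dims this reporter so a rising signal means less miR-21 action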
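Luminescence from a firefly luciferase reporter carrying a miR-21 binding site downstream, stably expressed under a CMV promoter in HeLa cells that make miR-21 endogenously, reports miRNA modulation after 48 h compound exposure up to approximately 40uM final.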
The depositor's hits bear a star; u = inconclusive; x = no result given. Only part of the results is shown; rates above refer to the full screens.

#	SMILES	Rango dissoc inh	GLA inh pH 4.5
1	CCn1cc(C(=O)NCC(=O)NCCCN2CCOCC2)c(=O)c2cc3c(cc21)OCO3	16.8%	x
2	O=C(CSc1nnc(-c2ccncc2)o1)Nc1cccc(Cl)c1	0.8%	x
3	COc1cccc(NC(=S)N2CCN(Cc3ccccc3)CC2)c1	12.1%	-7.7
4	O=C(CCCNC(=O)c1ccc(Cl)cc1)NCc1ccccc1Cl	2.5%	x
5	Cc1nc2ncnn2c(C)c1CCC(=O)NC(C)CCc1ccco1 (centres undefined)	0.7%	3.5
6	Cc1ccc(-c2csc(NC(=O)COc3ccc(N(C)S(=O)(=O)c4ccc(C)cc4)cc3)n2)cc1	6.8%	2.7
7	CCN(CC(=O)Nc1ccc(NC(C)=O)cc1)C(=O)/C=C/c1ccc([N+](=O)[O-])cc1	6.8%	x
8	O=C(Cc1cccc(NC(=O)C2CCN(C(=O)C3CC3)CC2)c1)Nc1cccc(C(=O)N2CCCC2)c1	2.0%	x
9	COc1ccc(-c2nc(CSCC(=O)NCC3CCCO3)c(C)o2)cc1OC (centres undefined)	-4.2%	1.6
10	Cc1cccc(N2CC(C(=O)Nc3nnc(SCC(=O)N4CCOCC4)s3)CC2=O)c1 (centres undefined)	7.7%	x
11	CCOC(=O)C/C(C)=N/NC(=O)CNc1cccc(Cl)c1C	3.3%	-2.4
12	COc1ccc(C2C(C(=O)Nc3cccc(C)n3)c3ccccc3C(=O)N2C)cc1 (centres undefined)	5.5%	-5.0
13	Cc1ccc(C(=O)C2=C(O)C(=O)N(Cc3cccnc3)C2c2cccc(Oc3ccccc3)c2)o1 (centres undefined)	-8.0%	x
14	CCn1cc(CN2CCC(n3nccc3NC(=O)CCOc3ccccc3)CC2)c(C)n1	-1.5%	x
15	CCn1c(-c2cccn(Cc3ccc(Cl)cc3Cl)c2=O)n[nH]c1=S	1.6%	9.5

#	Rango-impB inh	miR-21 FLuc
1	-0.6%	-0.7%
2	2.8%	x
3	1.0%	-21.4%
4	-3.9%	-3.9%
5	3.4%	-2.5%
6	0.5%	-10.9%
7	-1.5%	x
8	0.0%	x
9	0.8%	-6.9%
10	-0.6%	-1.3%
11	1.9%	0.2%
12	-1.1%	-3.8%
13	u	x
14	1.2%	0.0%
15	1.5%	-4.1%

Arranged by length of the SMILES (ascending): 3 of the compounds above
#	SMILES	Rango dissoc inh	GLA inh pH 4.5
3	COc1cccc(NC(=S)N2CCN(Cc3ccccc3)CC2)c1	12.1%	-7.7
7	CCN(CC(=O)Nc1ccc(NC(C)=O)cc1)C(=O)/C=C/c1ccc([N+](=O)[O-])cc1	6.8%	x
8	O=C(Cc1cccc(NC(=O)C2CCN(C(=O)C3CC3)CC2)c1)Nc1cccc(C(=O)N2CCCC2)c1	2.0%	x

#	Rango-impB inh	miR-21 FLuc
3	1.0%	-21.4%
7	-1.5%	x
8	0.0%	x

Complete entries as entered above. Order of values: Rango dissoc inh, GLA inh pH 4.5, Rango-impB inh, miR-21 FLuc
Shown for CCN(CC(=O)Nc1ccc(NC(C)=O)cc1)C(=O)/C=C/c1ccc([N+](=O)[O-])cc1 → 6.8%, x, -1.5%, x
Shown for O=C(CSc1nnc(-c2ccncc2)o1)Nc1cccc(Cl)c1 → 0.8%, x, 2.8%, x
Shown for COc1cccc(NC(=S)N2CCN(Cc3ccccc3)CC2)c1 → 12.1%, -7.7, 1.0%, -21.4%

More entries.
#	SMILES	Rango dissoc inh	GLA inh pH 4.5
16	O=C(CSc1nnnn1-c1ccc(F)cc1)NC1CCCCC1	1.2%	-5.0
17	N#C/C(=C(/O)COC(=O)c1ccccc1O)c1nc2ccccc2s1	u	-0.9
18	O=C(c1ccc(=O)[nH]n1)N1CCN(S(=O)(=O)c2ccccc2F)CC1	16.1%	x
19	CCCN1CCN(CCCNC(=O)c2ccc(CS(=O)c3ccccc3C)o2)CC1 (centres undefined)	1.5%	x
20	Cc1ccc(N(C(=O)c2ccc3c(c2)OCO3)C2C=CS(=O)(=O)C2)cc1C (centres undefined)	10.2%	x
21	O=C(/C=C/c1ccccc1)Nn1cnnc1	9.4%	8.0
22	COc1ccc(NC(=O)CSCC(=O)N(C)Cc2c(F)cccc2Cl)cc1	9.0%	x
23	CC(C)OCCCNC(=O)c1ccc2c(c1)ncn2C1CCCC1	0.2%	3.5
24	O=C(CCc1ccccc1)Nc1ccc(NC(=O)C2CCCCC2)nc1	1.1%	14.6
25	CCSCc1nnc(SCC(=O)Nc2nccs2)n1CC	13.0%	1.5
26	CNc1nnc(SCC(=O)c2cc(C)n(C3CC3)c2C)s1	-7.0%	x
27	O=C(O)CSc1nnc(-c2ccc(Cl)cc2Cl)n1-c1ccc(Cl)cc1	-1.7%	x
28	O=C(NCc1cccs1)c1ccc([N+](=O)[O-])cc1	-25.4%	-2.4
29	O=C1OC(NC(=O)c2ccccc2)C(n2cc(CO)nn2)=C1Cl (centres undefined)	-8.9%	-5.7
30	O=C1c2ccccc2NC(c2ccccc2)N1CCCN1CCOCC1 (centres undefined)	-6.7%	-4.5

#	Rango-impB inh	miR-21 FLuc
16	0.8%	-2.0%
17	u	-4.8%
18	3.2%	x
19	1.3%	-0.4%
20	3.2%	2.3%
21	-0.6%	-6.4%
22	1.6%	x
23	3.3%	-20.3%
24	0.0%	-2.2%
25	-3.2%	7.0%
26	-1.0%	x
27	4.4%	-6.2%
28	-4.5%	-5.3%
29	4.7%	-0.4%
30	-1.7%	5.3%

The closing 5 compounds of the section before come first, to join the parts.
#	SMILES	Rango dissoc inh	GLA inh pH 4.5
26	CNc1nnc(SCC(=O)c2cc(C)n(C3CC3)c2C)s1	-7.0%	x
27	O=C(O)CSc1nnc(-c2ccc(Cl)cc2Cl)n1-c1ccc(Cl)cc1	-1.7%	x
28	O=C(NCc1cccs1)c1ccc([N+](=O)[O-])cc1	-25.4%	-2.4
29	O=C1OC(NC(=O)c2ccccc2)C(n2cc(CO)nn2)=C1Cl (centres undefined)	-8.9%	-5.7
30	O=C1c2ccccc2NC(c2ccccc2)N1CCCN1CCOCC1 (centres undefined)	-6.7%	-4.5
31	COc1ccc(N2C(=O)CC(S/C(N)=N/N=C(\C)c3cccs3)C2=O)cc1 (centres undefined)	0.4%	4.6
32	O=C(N1CCCCCC1)N1CCN(C(=O)N2CCOCC2)CC1	31.9%	-0.8
33	O=C(CCNC(=O)C1CCN(S(=O)(=O)c2ccc(F)cc2)CC1)NCCc1cccc(F)c1	-2.4%	x
34	CC[C@H](C)[C@H](NC(=O)OCc1ccccc1)C(=O)OCC(=O)N(C)CC(=O)Nc1ccccc1Cl	25.9%	x
35	C=CCn1c(SCc2nc3ccccc3c(=O)[nH]2)nc2sc3c(c2c1=O)CCCC3	u	-4.5
36	Cc1ccc(Cn2c(SCC(C)C)nc3c2c(=O)n(C)c(=O)n3C)cc1	2.4%	-5.4
37	CC1CC(C)CN(c2ccc([N+](=O)[O-])nc2)C1 (centres undefined)	-5.0%	-11.5
38	Cc1ccc(Cl)cc1N1CCN(C(=O)CN(C2CCCCC2)S(C)(=O)=O)CC1	-4.2%	-9.0
39	COC(=O)c1ccc(COc2cc(C)ccc2C)o1	4.9%	x
40	CCCn1c(SCC(=O)NCCc2ccccc2)nnc1-c1ccccn1	9.6%	-2.4
41	c1ccc2[nH]c(-c3ccc4c(c3)OCO4)nc2c1	0.3%	x
42	CCC1(c2ccccc2)NC(=O)N(CC(=O)N(C)Cc2c(F)cccc2Cl)C1=O (centres undefined)	15.8%	x
43	Cc1cnc(NC(=O)c2cc3c(C)nn(-c4ccccc4)c3s2)s1	8.8%	4.2
44	C[C@H](NC(=O)c1ccccc1Cl)C(=O)OC(C(=O)Nc1cc(C(F)(F)F)ccc1Cl)c1ccccc1 (some centres undefined)	-8.3%	-11.7
45	O=C(CCC(=O)c1cccs1)NNC(=O)c1ccc(Cl)cc1	1.0%	x
46	O=C(NCCO)C1CCN(S(=O)(=O)c2ccc(F)cc2)CC1	0.1%	-4.1

#	Rango-impB inh	miR-21 FLuc
26	-1.0%	x
27	4.4%	-6.2%
28	-4.5%	-5.3%
29	4.7%	-0.4%
30	-1.7%	5.3%
31	1.1%	-7.6%
32	0.2%	-11.0%
33	-2.1%	-3.0%
34	2.2%	x
35	u	-2.9%
36	u	-5.9%
37	5.3%	-18.3%
38	-1.8%	u
39	0.9%	-43.1%
40	4.3%	-1.8%
41	0.6%	x
42	6.6%	-0.9%
43	u	-1.6%
44	2.5%	-14.9%
45	-0.4%	x
46	2.7%	1.8%

Screening data deposited in PubChem BioAssay by National Center for Advancing Translational Sciences (NCATS).
